Screening data: PubChem BioAssay, National Center for Advancing Translational Sciences (NCATS)
AmpC nodet inh = blocks E. coli AmpC beta-lactamase in absence of detergent | P00811 | AmpC nitrocefin hydrolysis, absorbance 480 nm, no detergent; potencies from a single point are estimates | Potency, µM (top dose mostly 28.7 µM), for inactives: at the top dose activity change, negative = inhibition | 71,000 tested, 1.8% active; active = falling curve, for most hits resting on a single point; inconclusive = weak or doubtful change; inactive = flat or rising curve; further: % of control where 0% means no effect; about half of the hits show no inhibition at the top dose; a quarter of the inactives give rising signals
Target sequence (P00811 whole entry, looked up): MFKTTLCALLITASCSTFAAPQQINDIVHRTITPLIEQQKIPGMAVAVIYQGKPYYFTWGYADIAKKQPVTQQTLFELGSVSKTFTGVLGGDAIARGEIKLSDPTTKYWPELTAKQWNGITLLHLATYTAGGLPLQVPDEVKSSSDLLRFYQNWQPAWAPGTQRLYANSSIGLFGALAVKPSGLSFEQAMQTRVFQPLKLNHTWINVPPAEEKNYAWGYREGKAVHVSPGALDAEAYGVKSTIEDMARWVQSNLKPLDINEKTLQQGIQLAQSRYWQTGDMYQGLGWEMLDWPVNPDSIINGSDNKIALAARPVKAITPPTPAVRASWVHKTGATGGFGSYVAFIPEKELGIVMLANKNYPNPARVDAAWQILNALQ
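AmpC, 20 mM phosphate pH 7.0; 15 min cpd preinc, RT; start with nitrocefin (800 uM stock); A480 kinetic read, 20 s intervals, 4 min. No-enzyme wells = negative control.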
An asterisk follows results filed as active; ? = inconclusive; & = joins results of further samples; [ ] = another dose, or the depositor's remark. Potency means the concentration at half of the fitted maximal effect. Not all compounds are listed; count on the stated rates, not on these rows.

SMILES	AmpC nodet inh
COc1ccc(-c2nnc(SCC(=O)Nc3sc4c(c3C#N)CCC4)n2CC2CCCO2)cc1 (centres undefined)	74.0%
N#CCCn1c(=O)c(CCc2ccccc2)nc2cnc(Nc3ccccc3)nc21	1.8%
COc1cc(C2C(C#N)=C(N)Oc3cc(C)n(CC4CCCO4)c(=O)c32)cc2c1OCO2 (centres undefined)	15.9%
O=C(O)[C@H]1C[C@H](C(=O)O)N1	3.6%&-0.3%
Cn1cccc1C(=O)OCC(=O)c1cc2ccccc2o1	-12.1%
Cc1cccc(CNc2cc(-c3ccc(C(=O)N(C)C)cc3)ncn2)c1	78.5%
O=C(CC1Oc2ccccc2NC1=O)NCCc1ccccc1 (centres undefined)	-2.1%
Nc1nnc(-c2ccccc2Cl)s1	-5.3%
CC(=O)Nc1cccc(NC(=O)CSc2ncc(-c3ccc(Cl)cc3)n2Cc2ccco2)c1	64.4%
O=c1/c(=C\c2ccc3c(c2)OCO3)sc2n1CCCN=2	9.9%
c1ccc(-c2oc3ncnc(NCCCn4ccnc4)c3c2-c2ccccc2)cc1	122.0%
CCN(CC)P(=O)(/C(Cl)=C\Nc1c(C)n(C)n(-c2ccccc2)c1=O)N(CC)CC	47.4%
N=C1CCC[C@@H]1C(=S)SCCC(N)=O	0.4%[5.75 µM]
Cc1cc2cc(CN(Cc3nnnn3C3CCCCC3)CC3CCCO3)c(=O)[nH]c2cc1C (centres undefined)	112.9%
CC(C)N(CCC(=O)c1ccc2ccccc2c1)Cc1ccccc1	9.5%&-9.2%
CC1=CC(C)(C)N(C(=O)CSc2nccn2C)c2cc(C)ccc21	45.9%
O=C(Cn1c(=O)n(-c2ccc(F)cc2)c(=O)c2sccc21)N1CCCC1	-2.1%
CCCCCn1c(=O)c(C(=O)NCc2ccncc2)c(O)c2ccccc21	78.6%
CCn1c(SCC(=O)c2ccc3c(c2)OCCO3)nnc1-c1ccco1	38.5%
COc1ccc(N2CCN(C(CNC(=O)Oc3ccccc3)c3cccnc3)CC2)cc1 (centres undefined)	101.7%
O=C(CN(Cc1ccc(F)cc1)C(=O)Cn1nnc2ccccc21)NCC1CCCO1 (centres undefined)	1.2%
COc1ccc(S(=O)(=O)N2CCCC(C(=O)NC3CCCCC3)C2)cc1 (centres undefined)	15.2%
O=C(Nc1ccccc1NC(=O)NC1CCCCC1)NC1CCCCC1	-11.1%
CCOC(=O)c1c(CN2CCCCC2)n(C)c2cc(Br)c(O)c(CN(C)C)c12	16.1%
COc1ccc(C(C)(C)C)cc1NC(=O)Nc1ccc2c(c1)OCO2	-3.8%
SMILES	AmpC nodet inh
Cc1ccc(-c2c3c([nH]c(=S)c2C#N)CCCC3)o1	-4.3%
CCc1ccccc1S(=O)(=O)Cc1ccc(C(=O)NCc2ccc3c(c2)OCO3)o1	3.98µM*[single pt active]
O=S(=O)(c1cccc2nsnc12)N1CCc2ccccc2C1	-0.4%
Cc1noc(C)c1S(=O)(=O)N1CCC(C(=O)N2CCN(Cc3ccc4c(c3)OCO4)CC2)CC1	128.7%
O=C1CCCC2=C1C(Cc1ccccc1)C1=C(CCCC1=O)O2	13.8%
O=C(CCN1CCc2ccccc2C1)c1ccc2c(c1)OCCO2	0.4%
COC(=O)[C@H](Cc1ccccc1)NC(=O)NCCc1ccc(S(N)(=O)=O)cc1	1.6%
CCN1CCN(Cc2coc3ccc(C)cc3c2=O)CC1	-3.3%
O=C(NCc1cn2ccccc2n1)c1ccc(Br)o1	-1.3%
O=C1CN(c2ccccc2F)C(=O)CN1c1ccccc1F	5.3%
N#CCCn1c(=O)c(-c2cccs2)nc2cnc(N3CCOCC3)nc21	-0.9%
O=C(O)C1C2C=CC(C2)C1C(=O)NCCCN1CCOCC1 (centres undefined)	-5.4%
COCCCNC(=O)CCCC(=O)NCCCOC	6.2%
O=C(O)C1CC(=O)N(Cc2cccnc2)C1 (centres undefined)	-1.2%
COC(=O)c1[nH]c2ccccc2c1NC(=O)CCN1CCN(C2CCCCC2)CC1	1.5%
CCCOc1ccc(OC(=O)c2ccc(Br)o2)cc1	10.5%
Cc1ccccc1-c1nc(CN2CCC(C(=O)NC3CCN(Cc4ccccc4)CC3)CC2)c(C)o1	10.4%
O=C(NC1CCCCCC1)C1c2ccccc2C(=O)N1Cc1cccnc1 (centres undefined)	14.7%
COC(=O)[C@@]1(Cc2ccc(OC)cc2)[C@H]2c3cc(C(=O)N(C)C)n(Cc4ccc(OC)c(OC)c4)c3C[C@H]2CN1C(=O)c1ccccc1	155.3%
COc1ccc(C(=O)Nc2ccccc2C(=O)NC(C(=O)NCc2ccco2)C(C)C)cc1 (centres undefined)	26.7%
Cc1cccc(S(=O)(=O)C(C#N)c2nc3ccccc3nc2N2CCCC2)c1 (centres undefined)	-12.3%
O=C1N(c2ccccc2)C2CS(=O)(=O)CC2N1c1ccc(Br)cc1 (centres undefined)	-5.5%
C=CCNc1nc2c3ccccc3n(C(C)=O)c2s1	-6.9%
CCCN(CCC)c1c([N+](=O)[O-])cc(C(F)(F)F)cc1[N+](=O)[O-]	-14.8%
CC(=O)c1cc2c(cc1NC(=O)CSc1nc3ccccc3o1)OCO2	16.8%

15 structures from above, sorted by length of the SMILES, lowest first.
SMILES	AmpC nodet inh
O=C(O)C1CC(=O)N(Cc2cccnc2)C1 (centres undefined)	-1.2%
C=CCNc1nc2c3ccccc3n(C(C)=O)c2s1	-6.9%
CCN1CCN(Cc2coc3ccc(C)cc3c2=O)CC1	-3.3%
O=C1CN(c2ccccc2F)C(=O)CN1c1ccccc1F	5.3%
O=C(CCN1CCc2ccccc2C1)c1ccc2c(c1)OCCO2	0.4%
O=C1CCCC2=C1C(Cc1ccccc1)C1=C(CCCC1=O)O2	13.8%
O=C(NC1CCCCCC1)C1c2ccccc2C(=O)N1Cc1cccnc1 (centres undefined)	14.7%
N#CCCn1c(=O)c(-c2cccs2)nc2cnc(N3CCOCC3)nc21	-0.9%
O=C1N(c2ccccc2)C2CS(=O)(=O)CC2N1c1ccc(Br)cc1 (centres undefined)	-5.5%
Cc1cccc(S(=O)(=O)C(C#N)c2nc3ccccc3nc2N2CCCC2)c1 (centres undefined)	-12.3%
COC(=O)c1[nH]c2ccccc2c1NC(=O)CCN1CCN(C2CCCCC2)CC1	1.5%
CCc1ccccc1S(=O)(=O)Cc1ccc(C(=O)NCc2ccc3c(c2)OCO3)o1	3.98µM*[single pt active]
COC(=O)[C@H](Cc1ccccc1)NC(=O)NCCc1ccc(S(N)(=O)=O)cc1	1.6%
CCCN(CCC)c1c([N+](=O)[O-])cc(C(F)(F)F)cc1[N+](=O)[O-]	-14.8%
COc1ccc(C(=O)Nc2ccccc2C(=O)NC(C(=O)NCc2ccco2)C(C)C)cc1 (centres undefined)	26.7%

Continuation:
SMILES	AmpC nodet inh
C=CCN1C(=O)C(O)(CC(=O)c2ccc(OC)cc2OC)c2cc(Br)ccc21 (centres undefined)	46.1%
S=C(Nc1ccc2cn[nH]c2c1)Nc1ccc2cn[nH]c2c1	-13.2%[5.75 µM]
CCOC(=O)c1cc2c(ccn2C)n1CC(=O)N1CCN(c2ccc(F)cc2)CC1	89.7%
CC(=O)c1cccc(NC(=O)N2CCCC2C(=O)Nc2ccccc2C)c1 (centres undefined)	11.7%
O=C(O)c1ccccc1S(=O)(=O)NCC(O)COc1ccc(Br)cc1 (centres undefined)	-1.5%
CC1(C)CC(=O)C2=C(C1)NC(=O)CC2C(=O)NCc1ccc(F)cc1 (centres undefined)	2.1%
Cn1c(=O)c2c(nc(SCC(=O)N3CCCc4ccccc43)n2C)n(C)c1=O	2.2%
C=CCn1c(=N)c(C(=O)NCCCOC)cc2c(=O)n3cccc(C)c3nc21	18.6%
COC(=O)c1ccc2c(c1)N(C)CCS2	3.98µM*[single pt active]
Cc1ccc(N2C(=O)[C@@H]3[C@H](C2=O)C2c4ccccc4C=CN2[C@@H]3C(=O)c2ccco2)c(C)c1 (some centres undefined)	41.5%
CCN1CCC(O)([C@H](C(=O)O)c2ccccc2)CC1	-4.6%[5.75 µM]
Cc1ccc(S(=O)(=O)NCCC(=O)N2CCCCC2)cc1	9.5%
O=C(CSc1nccn1-c1ccccc1)NCc1ccc2c(c1)OCO2	12.6%
Cc1cc2cc(OCC(=O)O)ccc2n1C	-8.0%
Nc1c(C(=O)NCCN2CCOCC2)c2nc3ccccc3nc2n1CCc1ccccc1F	132.4%
CCOc1c(Br)ccc2c1sc1nc[nH]c(=O)c12	?
CCC(=NCc1ccco1)c1c(O)n(Cc2ccccc2)c(=O)[nH]c1=O	-5.8%
CCOC(=O)C1CCN(S(=O)(=O)c2cccc(-c3cn4cccc(C)c4n3)c2)CC1	102.7%
Cc1cccc(CNc2ncncc2-c2ccc(C(=O)N(C)C)cc2)c1	52.7%
O=C(Nc1ccc2c(c1)OCO2)C(c1ccc(Cl)cc1)N1CCN(C(=O)c2ccco2)CC1 (centres undefined)	64.6%
COc1ccc(CCn2c(C)cc(C(=O)CSc3nnc(N)s3)c2C)cc1	-14.3%
Cn1c(N2CCN(C(=O)C34CC5CC(CC(C5)C3)C4)CC2)nc2ccccc21	23.1%
Cc1ccc(N(CC(=O)NCc2ccncc2)S(C)(=O)=O)cc1Cl	6.9%
Cc1cc(Oc2ccccc2)nc2ccc(O)cc12	-8.1%
COC(=O)c1ccc(CSc2nc(C(F)(F)F)c3c(c2C#N)CCC3)o1	21.6%
SMILES	AmpC nodet inh
CN(CCCNC(=O)c1cn(C)c2ccc(S(=O)(=O)N(C)C)cc2c1=O)c1ccccc1	140.0%
COc1ccc(C2=NOC(C(=O)N3CCCCCC3)C2)cc1OC (centres undefined)	26.0%
CC(=O)c1cccc(NC(=O)C2CCCC2)c1	-10.6%
CCN1CCCC1CNC(=O)C1CCN(Cc2nc(-c3cccc(Br)c3)oc2C)CC1 (centres undefined)	49.6%
O=C(Nc1ccc2c(c1)OCO2)C1CCN(S(=O)(=O)c2ccc3c(c2)OCCO3)CC1	-10.3%
CN=c1scc(C)n1/N=C/c1ccc(O)cc1O	-1.9%
CCCCOC(=O)C1=C(C)Nc2ncnn2C1c1cc(OC)ccc1OC (centres undefined)	65.6%
C=CCOC(=O)C1=C(C)NC(=O)NC1c1cn(-c2ccccc2)nc1-c1cccs1 (centres undefined)	36.1%
CC1(C)C(=O)C(c2ccccc2)=C2CN3C(=O)N(CCc4ccccc4)C(=O)C3(Cc3ccc(F)cc3)C=C21 (centres undefined)	-1.1%
S=c1sc2c(N3CCOCC3)ncnc2n1-c1ccccc1	4.9%
COC(=O)Cn1c2ccc(OC)cc2c2nc3ccccc3nc21	14.1%
Cc1ccc(OC(C)C(=O)N2CCc3ccccc32)cc1 (centres undefined)	5.7%
O=C(O)[C@@H](c1ccccc1)N1Cc2ccccc2C1=O	5.0%
Cn1c(=O)n(CC(N)=O)c2ccccc21	-9.6%
COc1ccc(Nc2nc(C)c3ccccc3n2)cc1	15.2%
COc1ccc(N(C2CSC2)S(=O)(=O)c2ccccc2)cc1	-2.7%
COCCCNC(=O)CS(=O)(=O)Cc1nc(-c2ccccc2C)oc1C	59.9%
CCOC(=O)C1CCCN(C(=O)c2cn(CC)c3ccc(S(=O)(=O)N4CCCC4)cc3c2=O)C1 (centres undefined)	39.8%
Cn1cccc1Cc1nnc(SCC(=O)Nc2ccc(F)cc2)n1-c1ccc(F)cc1	77.0%
CN(C)S(=O)(=O)c1cccc(C(=O)N2CCc3ccccc32)c1	19.8%
COC(=O)C1=C(C)N(Cc2cccnc2)C(=O)C1	1.8%
Cc1noc(C)c1CSc1ccccc1C(=O)N1CCN(c2ccccc2)CC1	83.6%
CC(=O)c1cc(-c2nc3ccccc3n2C)n(C)c1	-0.3%
COc1ccc(N2CCN(C(=O)CN(c3ccccc3)S(C)(=O)=O)CC2)cc1	44.2%
CC(=O)NC(CCS(C)(=O)=O)C(=O)N1CCc2ccccc21 (centres undefined)	-1.9%
SMILES	AmpC nodet inh
CC(NCCO)C(=O)C12CC3CC(CC(C3)C1)C2 (centres undefined)	-9.4%
COc1cccc(C(=O)Nc2ccc(NC(=O)C(C)C)nc2)c1	-20.7%
CCOc1cc(S(=O)(=O)NCc2ccccn2)c(C)cc1C	9.1%
COCC(=O)N1CCC[C@@]2(CCN(Cc3nccs3)C2)C1	28.9%
CC(C)CCNC(=O)CN(C)S(=O)(=O)c1cccc2nsnc12	3.8%
COCCNC(=O)c1ccccc1NC(=O)c1ccc(OC)c(OC)c1	20.8%
COC(=O)[C@@]1(Cc2ccc(OC)cc2)[C@H]2c3cc(C(=O)N(C)C)n(Cc4ccc(O)c(OC)c4)c3C[C@H]2CN1C(=O)c1ccccc1	152.1%
Fc1cccc2sc(N3CCOCC3)nc12	2.7%
COc1ccc(S(=O)(=O)NCCOc2ccccc2)cc1OC	1.6%
O=C(O)C1(c2ccc(Cl)cc2)CCC1	-4.5%
O=C(CN1CCC(n2nnc3ccccc32)CC1)NCc1cccs1	9.7%
Cc1c(C(=O)NCc2ccc3c(c2)OCO3)oc2ccc(S(=O)(=O)N3CCCCC3)cc12	-12.2%
CN(C)S(=O)(=O)N1CCC(Cc2ccccc2)CC1	38.8%
C#CCN1C(C)=C(C(=O)CCO)[C@@H](c2cccc(-n3oo3)c2)C(C(=O)OC)=C1C	27.6%
CN(C)/C=N/c1nc2ccc3c(c2s1)CCCC3	120.7%
Cc1[nH]c2ccccc2c1C(=O)CSc1ncn[nH]1	-5.8%
N#CCCN1CCN(S(=O)(=O)c2ccc(S(=O)(=O)NCC3CCCO3)cc2)CC1 (centres undefined)	20.1%
CN(C)CCCN1c2ccccc2Sc2ccc(Cl)cc21	51.9%[12.8 µM]
CCc1nc2ccccc2n1Cc1ccccc1OC	48.9%
CN(C)S(=O)(=O)c1ccc(N2CCOCC2)nc1	-7.5%
O=C(Nc1ccc2c3c(cccc13)CC2)c1ccco1	7.6%
CC(C)C[C@@H](CC(=O)N[C@@H](CCCN)CC(=O)N[C@@H]1CCCC[C@H]1C(=O)N[C@H](CC(=O)N[C@@H](CCC(=O)O)CC(=O)O)Cc1ccccc1)NC(=O)[C@@H]1CCCC[C@H]1N	163.1%
